# Source: PubChem
# Mtb bLac sens: beta-lactam sensitization of Mtb H37Rv, H37Rv | M. tuberculosis H37Rv growth with meropenem, percent inhibition; hits of this screen are not shown here | inhibition, % at 25 µM | 330,000 compounds, 0.27% hits | AID 434955, 2010;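 active means about 74% or more and at least 40 points above the plate without the antibiotic, then above 30% in a dose series; inconclusive means first-round hits that could not be retested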;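 further: growth measured after seven days incubation then overnight dye step; 0% = bacteria only wells and 100% = bacteria with antibiotic; twin plates without the antibiotic show which effects depend on it; some results filed as inactive read as strong as hits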
# Arbovirus anti: antivirals against arbovirus infection, primary screen, cell-based, full library, 10K replicate subset; inhibition, % at 10 µM; 200,000 compounds, 0.37% hits; arbovirus infection cell-based antiviral screen; AID 1251, 2008;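 active means inhibition from about 30%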;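 further: bluetongue infection of BSR cells; cell survival read as ATP light after 72 h; 0% = infected wells without compound and 100% = uninfected wells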
# Mtb H37Rv: M. tuberculosis H37Rv growth inhibitors, H37Rv strain (AID 1626); one-dose inhibition, % at 10 µM; IC50 in µM for titrated hits; M. tuberculosis H37Rv growth inhibition; higher % means a stronger effect; 220,000 compounds, 0.95% hits;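 active means confirmed in a dose series; inconclusive means inhibition above 80% but not taken into the dose series; inactive means below 80% or under 30% at every dose of the series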;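 further: bacteria incubated seven days before Alamar blue readout; 0% = bacteria only wells and 100% = bacteria with antibiotic wells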
# RecA intein inh: Mtb RecA intein splicing inhibitors, primary screen, biochemical, fluorescence, HTS; Protein RecA (Mycobacterium tuberculosis (strain ATCC 25618 / H37Rv)), P9WHJ3; cell-free RecA intein splicing; inhibition, %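 (about 9 µM by stock and volumes)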; 290,000 compounds, 0.75% hits; in the data active means inhibition above about 30%; inconclusive means no clear call, values can overlap the other calls;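 further: 0% = vehicle wells and 100% = reference inhibitor control wells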
# Target sequence (P9WHJ3 whole entry, looked up): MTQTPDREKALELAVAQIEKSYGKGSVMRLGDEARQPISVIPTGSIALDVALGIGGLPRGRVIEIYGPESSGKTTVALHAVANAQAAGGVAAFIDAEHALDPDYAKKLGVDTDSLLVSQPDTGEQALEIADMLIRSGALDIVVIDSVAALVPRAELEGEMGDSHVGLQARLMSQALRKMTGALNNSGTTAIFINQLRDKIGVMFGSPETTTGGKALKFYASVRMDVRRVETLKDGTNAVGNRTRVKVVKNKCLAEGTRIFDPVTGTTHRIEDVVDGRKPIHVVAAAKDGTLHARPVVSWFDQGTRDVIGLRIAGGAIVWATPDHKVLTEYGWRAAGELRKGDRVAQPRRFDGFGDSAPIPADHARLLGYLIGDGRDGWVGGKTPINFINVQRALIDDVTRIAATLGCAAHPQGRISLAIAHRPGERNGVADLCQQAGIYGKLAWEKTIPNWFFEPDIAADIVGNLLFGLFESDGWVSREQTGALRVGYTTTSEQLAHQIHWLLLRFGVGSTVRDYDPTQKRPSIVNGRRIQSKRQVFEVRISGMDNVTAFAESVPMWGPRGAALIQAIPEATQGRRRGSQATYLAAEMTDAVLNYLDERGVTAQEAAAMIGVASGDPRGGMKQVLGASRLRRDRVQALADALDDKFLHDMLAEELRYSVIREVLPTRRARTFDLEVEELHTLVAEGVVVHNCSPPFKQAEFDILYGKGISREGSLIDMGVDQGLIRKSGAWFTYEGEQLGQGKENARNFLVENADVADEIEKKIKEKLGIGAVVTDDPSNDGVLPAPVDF
# YopH inh: YopH tyrosine phosphatase inhibitors, primary screen, biochemical, fluorescence Ex485/Em525; inhibition, %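 (about 10 µM by stock and volumes)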; 140,000 compounds, 0.16% hits; AID 898, 2007;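 active means inhibition of 50% or more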;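 further: controls were vehicle for no effect and minimum signal wells for full effect; inactives centre near -20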
# Arbovirus anti repeat: recorded beside Arbovirus anti, whose call it bears; inhibition, %; measured here: 10K subset replicate screen; many hits read low in the repeat;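 first of two repeat runs on a subset; 0% = infected and 100% = uninfected wells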
# * marks the source's active call; other numbers are inactive results; ? = inconclusive; · = no result given.
SMILES,Mtb bLac sens,Arbovirus anti,Mtb H37Rv,RecA intein inh,YopH inh,others
Cc1ccc(CSc2nnc([C@@H]3CCCN3)o2)cc1,2,-2,-7%,-2.9,-10,
COC(=O)c1cnn2c1C(=O)N(Cc1cccs1)CC2,2,6,5%,-1.4,·,
N#Cc1ccc(C(c2nnnn2Cc2ccccc2)N2CCCC2)cc1 (stereo not drawn),1,-10,-6%,0.2,-13,
Cc1ccc(-c2nnc(NC(=O)c3ccco3)o2)c(C)c1,84,·,·,-0.3,·,
C=C(C)CN(CC)C(=O)c1ccc(OC2CCN(S(=O)(=O)N(C)C)CC2)cc1,-2,4,0%,1.2,·,
COc1ccc(CC(=O)NNC(=O)Cc2ccc(OC)cc2)cc1,0,-3,5%,-1.9,·,
CCOC(=O)C1C(c2ccc([N+](=O)[O-])cc2)C2C(=O)NN=C2CC1(C)O (stereo not drawn),-10,·,-5%,-1.9,·,
COC(=O)c1c(N)n(CCCN2CCOCC2)c2nc3ccccc3nc12,6,-3,-1%,-138,-17,
Cc1nc2cc3nc(C(F)(F)F)[nH]c3cc2[nH]1,-3,1,-1%,8.4,-28,
Cn1cnc(C(F)(F)F)c1-c1ccc([N+](=O)[O-])cc1,2,5,0%,-2.8,-27,
Cc1ccnc(NC(=O)/C=C/c2cccs2)c1,7,4,·,-1.8,-20,
N#Cc1ccc(NC(=O)CN2C(=O)NC3(CCCC3)C2=O)cc1,4,·,·,-0.6,·,

# Reprinted at random: 7 records from the list.
SMILES,Mtb bLac sens,Arbovirus anti,Mtb H37Rv,RecA intein inh,YopH inh,others
COc1ccc(CC(=O)NNC(=O)Cc2ccc(OC)cc2)cc1,0,-3,5%,-1.9,·,
Cc1ccc(-c2nnc(NC(=O)c3ccco3)o2)c(C)c1,84,·,·,-0.3,·,
N#Cc1ccc(NC(=O)CN2C(=O)NC3(CCCC3)C2=O)cc1,4,·,·,-0.6,·,
N#Cc1ccc(C(c2nnnn2Cc2ccccc2)N2CCCC2)cc1 (stereo not drawn),1,-10,-6%,0.2,-13,
COC(=O)c1c(N)n(CCCN2CCOCC2)c2nc3ccccc3nc12,6,-3,-1%,-138,-17,
C=C(C)CN(CC)C(=O)c1ccc(OC2CCN(S(=O)(=O)N(C)C)CC2)cc1,-2,4,0%,1.2,·,
CCOC(=O)C1C(c2ccc([N+](=O)[O-])cc2)C2C(=O)NN=C2CC1(C)O (stereo not drawn),-10,·,-5%,-1.9,·,

# Other compounds:
SMILES,Mtb bLac sens,Arbovirus anti,Mtb H37Rv,RecA intein inh,YopH inh,others
CCN(CC(=O)Nc1ccc(NC(C)=O)cc1)C(=O)/C=C/c1ccccc1,-7,·,·,-3.5,·,
CCN(C(=O)CSc1nc2ccc([N+](=O)[O-])cc2s1)C1CCS(=O)(=O)C1 (stereo not drawn),-7,25,-1%,0.3,·,
O=C(NCc1ccccc1)C1CCC(=O)N(CCCN2CCCC2=O)C1 (stereo not drawn),-6,·,·,-1.4,·,
CC(C)Oc1cccc(C(=O)Nc2ccc(N3CCN(C)CC3)cc2)c1,6,·,·,-1.5,·,
O=C(NC1CCCCC1)c1cc(S(=O)(=O)N2CCOCC2)c(Cl)cc1Cl,5,·,·,-0.9,·,
CC(C)N(Cc1nc(-c2ccccc2)no1)C(=O)CN(C)S(=O)(=O)c1ccc(Br)cc1,-11,15,4%,3.9,-4,
CS(=O)(=O)N1CCN(c2ccc(NC(=O)COc3ccccc3[N+](=O)[O-])cc2)CC1,-3,·,·,1.0,·,
Cc1c(C(=O)N2CCCCC2)c(S(=O)(=O)N2CCN(c3ccc(Cl)cc3)CC2)c(C)n1C,1,·,·,2.9,·,
CC(C)(C)NC(=O)C(c1ccccn1)N(C(=O)C1CSC(=O)C1)c1ccccc1F (stereo not drawn),-2,0,5%,7.6,·,
Cc1ccc(C(=O)N2CCCCC2)cc1S(=O)(=O)N1CCOCC1,-3,·,·,-2.2,·,
COCc1nnc(NC(=O)CC(C)c2ccccc2)s1 (stereo not drawn),6,-1,-4%,0.7,16,
OCCNc1ncnc2c1cnn2Cc1ccccc1,-2,·,·,1.0,·,
Cc1csc(NC(=O)c2cccnc2)n1,-3,·,·,0.7,·,
CCC(C)NC(=O)CSc1ncccc1C(=O)O (stereo not drawn),6,4,11%,-0.9,-49,
C[N+](C)(C)C[C@H](O)CC(=O)O,-1,·,9%,1.7,·,
CCC(=O)c1cc(F)ccc1OCC(=O)N1CCN(c2ccc(F)cc2)CC1,5,9,-3%,0.4,·,
Cc1ccccc1CN1C[C@@H]2C[C@@H](c3cn(C)nc3-c3ccccc3)N3CCC[C@@]23C1=O,-2,4,4%,22,·,
CCOC(=O)c1c(S(=O)(=O)N2CCC(C)CC2)c(C)n(C)c1C,3,·,·,0.5,·,
CCOC(=S)N/C(=N\S(C)(=O)=O)c1ccccc1,-9,·,-10%,-0.5,·,
CCN(c1ccccc1)S(=O)(=O)c1ccc(C(=O)N(C)CCc2ccc(OC)c(OC)c2)cc1,-11,·,·,3.2,·,
Cc1cc(-c2cc(-c3ccccc3)on2)nc(NCC2CC2)n1,33,·,3%,-2.7,·,
CCOC(=O)C1(Cc2ccccc2C)CCCN(C(=O)c2ccc(OC)o2)C1 (stereo not drawn),-6,·,·,-3.8,·,
CC(=O)N1CCN(C(=S)c2cccc([N+](=O)[O-])c2)CC1,-8,0,7%,5.8,-28,
O=C(Nc1cccc(-c2csc(Nc3ccccc3)n2)c1)c1cc([N+](=O)[O-])cc(C(F)(F)F)c1,-2,·,·,1.1,·,
Cc1ccc(O)c(NC(=O)c2cc(-c3ccco3)on2)c1,1,·,·,-1.2,·,
COc1cc(/C=N\NC(=O)c2ccc(C)nc2)ccc1OC(=O)c1cccc(F)c1,2,·,·,-1.5,·,
COc1ccc(OC(=O)N(C)C)c(CN(C)C)c1,2,3,-10%,0.9,-12,
Oc1ccc(/C=N/Nc2cc(N3CCOCC3)nc(N3CCOCC3)n2)cc1,-1,·,-5%,-5.5,15,
CN(C(=O)/C(N=Nc1cccc(C(F)(F)F)c1)=C(\O)C(F)(F)F)c1ccccc1,2,-9,-9%,2.5,-32,
Cc1ccc(C)c(OCCCC(=O)O)c1,-7,5,0%,0.3,-28,
COc1ccc2cc(CCNC(=O)C(C)C)c(=O)[nH]c2c1,-8,8,-1%,0.6,-24,
CC(C)N(C(=O)C1CC(=O)OC12CCCCC2)C(C)C (stereo not drawn),-2,0,-4%,0.5,-11,Arbovirus anti repeat=7
CC[C@@H](C)[C@H](NC(=O)OCc1ccccc1)c1nnc([C@@H](NC(=O)OCc2ccccc2)[C@@H](C)CC)o1,-2,·,3%,1.2,·,
CCOc1ccc(CN2CCC(n3nccc3NC(=O)CCCc3ccccc3)CC2)cc1,-2,·,·,0.5,·,
C=CCNc1nc(Cl)nc(Nc2cc(Cl)ccc2OC)n1,3,·,·,-1.9,·,
Cc1ccc(C(=O)CCNc2ccc(F)c(Cl)c2)o1,-2,-3,-5%,2.4,-4,
CCC1CCCCN1CCCNC(=O)C1CCN(S(=O)(=O)N2CCC3(CC2)OCCO3)CC1 (stereo not drawn),-1,·,·,-0.8,·,
CCOc1cc2[nH]c(=S)n(Cc3ccc(C(=O)NCC(OC)OC)cc3)c(=O)c2cc1OCC,3,2,1%,4.2,1,
Cc1cc2cc(C#N)c(NCCNC(=S)NCCCN3CCOCC3)nc2cc1C,1,8,1%,-40,-37,
COc1c2c(nc3occc13)C(CC=C(C)C)(OC)C(O)CC2 (stereo not drawn),-3,4,-3%,3.2,-23,
COc1cc(C(Nc2ccc(S(=O)(=O)NCC3CCCO3)cc2)C(=O)NC(C)(C)C)cc(OC)c1OC (stereo not drawn),-2,·,-3%,-0.9,·,
S=C(c1cn(Cc2ccccc2)c2ccccc12)N1CCOCC1,-3,16,5%,3.8,·,
O=S(=O)(NC1CC1)c1ccc(S(=O)(=O)N2CCC3(CC2)OCCO3)cc1,2,0,-5%,-6.0,·,
Cc1nn(C(=O)c2ccco2)c(C)c1CN1C(=O)c2ccccc2C1=O,1,0,-11%,0.2,-32,
O=C(CCNC(=O)c1ccccc1Cl)Nc1cc(C(F)(F)F)ccc1N1CCCC1,18,·,·,-0.4,·,
O=C1NC(Nc2nccs2)(C(F)(F)F)C(=O)N1CCc1ccccc1 (stereo not drawn),-11,-9,4%,1.8,-45,
Cc1cc(N2CCCC2)ccc1/C=C1/C(=O)N(C)C(=S)N1C,-3,-6,7%,0.3,·,
O=c1c2ccccc2sn1-c1cc(S(=O)(=O)N2CCOCC2)ccc1N1CCCC1,-23,-39,-9%,-1.8,-10,
COc1ccc(S(=O)(=O)N2Cc3ccccc3CC2C(=O)Nc2nccs2)cc1 (stereo not drawn),21,6,1%,2.0,-9,
COc1ccc(C2(CNC(=O)c3ccc(C)cc3)CCOCC2)cc1,-2,-1,4%,0.3,·,
Cc1cccc2cc(CN(CCCO)C(=O)Nc3ccccc3Cl)c(=O)[nH]c12,-9,2,1%,-0.5,-32,
CCOc1ccc(S(=O)(=O)N2CCN(C(=O)C3CCC3)CC2)cc1,-3,·,·,0.5,·,
Cc1cc(=O)n2nc(N3CCCC(C(=O)NC4CCC(C)CC4)C3)sc2n1 (stereo not drawn),1,·,·,0.0,·,
COC(=O)CCC(=O)OC1(C)C(=O)C2=CN(c3ccccc3)C(c3ccc(OC)cc3)=CC2=C(Br)C1=O (stereo not drawn),-3,·,-2%,-12,·,
COc1ccc(/C=C(\C#N)C(=O)Nc2cccnc2)cc1,2,-3,-5%,0.1,-19,
Clc1ccc2noc(-c3ccccc3)c2c1,10,-4,-5%,1.0,-3,
CC(C)COC(=O)c1cccc2c1-c1ccccc1/C2=N\O,?,-32,·,4.9,-25,
CN(C)C(=O)c1snnc1-c1ccccc1,-10,-2,0%,3.8,17,
c1cc2c(cc1[C@H]1OC[C@H]3[C@@H]1CO[C@@H]3c1ccc3c(c1)OCO3)OCO2,4,·,-4%,1.8,·,
COc1ccc(-n2c(C)nc3cc(C(=O)N4CCOCC4)ccc32)cc1,2,-4,-2%,-1.2,-4,
# Additional compounds:
SMILES,Mtb bLac sens,Arbovirus anti,Mtb H37Rv,RecA intein inh,YopH inh,others
COc1cc(/C=C2\COC/C(=C\c3cc(OC)c(OC)c(OC)c3)C2=O)cc(OC)c1OC,·,·,21%,1.2,·,
Cc1ccc(S(=O)(=O)N(C)C)cc1NC(=S)NCc1ccco1,3,5,3%,1.9,·,
O=C(CSc1c[nH]c2ccccc12)N1CCCc2ccccc21,4,6,11%,-2.7,-12,
CSc1nnc(C)c(/C=C/Nc2ccc(C)cc2)n1,95,-6,12%,-0.3,-51,
COc1cc(CC(=O)Nc2ccc(S(=O)(=O)N(C)C)cc2)cc(OC)c1OC,-5,1,6%,·,-33,
CCN(CC(=O)NC)S(=O)(=O)c1ccc(Br)cc1,0,-1,-4%,0.0,12,
CS(=O)(=O)N1CCN(C(=O)c2cc3ccccc3oc2=O)CC1,7,5,0%,-0.4,-19,
CCOC(=O)N1CCN(C(=S)NC(=O)C2CCCC2)CC1,4,·,-14%,-0.5,·,
COC(=O)N/N=C(C)\C=C\c1ccco1,7,0,4%,-0.8,11,
O=c1c2ccccc2nnn1COc1cccc2ccccc12,-1,-12,-1%,0.5,·,
Cc1ccc(N2C(S)=C(C#N)C(=O)NC2c2cccs2)cc1 (stereo not drawn),2,-9,2%,7.0,-37,
CCC(C(=O)Nc1cc(Cl)ccc1OC)c1ccccc1 (stereo not drawn),5,5,13%,7.0,-33,
CCC/C(O)=C1\C(=O)CCCC1=NCCc1ccc(OCC)c(OCC)c1,-6,5,4%,0.4,·,
C=CCn1c(C(CCCC)CC(O)COCCC)n[nH]c1=S (stereo not drawn),-9,-2,14%,1.1,·,
CC(=O)NCCn1c(SCc2cc(=O)n3cc(Cl)ccc3n2)nc2ccccc2c1=O,1,2,-1%,-0.3,-51,
CCCC(C)n1[nH]c(=O)c2c(C)cc(C)nc21 (stereo not drawn),2,-5,12%,-3.8,-18,
CC(OC(=O)CC1Sc2ccccc2NC1=O)C(=O)NC1CCCC1 (stereo not drawn),-5,·,·,0.0,·,
O=C(Cn1ncc2c(=O)oc3ccccc3c21)N1CCN(C(=O)c2ccco2)CC1,-7,1,-9%,-1.0,-37,
CCc1ccc(N(CC(=O)N2CCN(Cc3ccccc3)CC2)S(C)(=O)=O)cc1,4,·,·,-1.5,·,
Fc1ccc(-n2cc(-c3ccccc3)[n+]3c2SCC3)cc1,1,7,5%,-2.5,·,
Cc1c(C(=O)NCc2ccco2)oc2ccc(S(=O)(=O)N3CCC4(CC3)OCCO4)cc12,-7,-8,-7%,0.0,-111,
Cc1noc(C)c1C(=O)Nc1ccccc1C(=O)NCCc1ccccc1,-6,·,·,1.4,·,

# Some of the compounds tested; the hit share may differ from the screen's.
